Bioassay records: PubChem, PCMD
Calb biofilm kill: clotrimazole potentiators killing C. albicans biofilm, primary screen, 4-compound mixtures; C. albicans biofilm persisters + clotrimazole, fluorescence viability; primary screen in compound mixtures of four per well; inhibition, % at 7.6 µM; hit rate 0.02% among 120,000; AID 1242, 2008;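 active means inhibition above 30.3% in the primary screen of four-compound pools, then above 30% when the compound was retested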;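 further: compounds exposed to preformed 24 h biofilms for 48 h; the number belongs to the whole pool; some results filed as inactive read as strong as hits; inactives centre near 12; 0% = biofilm with clotrimazole alone and 100% = kill control; retested singly at about 60 µM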
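Test system: C. albicans CAF4-2 wild-type biofilms; buffer or medium: RPMI/MOPS medium, pH 7.0; schedule: 24 h biofilm formation, then 48 h compound exposure, 37 °C; detection: Alamar Blue fluorescence; measure: percent inhibition of biofilm viability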
The depositor's hits bear a star.

The first six compounds, ahead of the listing:
Structure,Calb biofilm kill
CC(C)CCN1CCN(C2CCN(c3ccc4c(c3)OCO4)CC2)CC1CCO (stereo not drawn),7
Cn1c(=O)cc(SCC(=O)NCCC2=CCCCC2)c2ccc(Cl)cc21,7
Cn1c(=O)c2[nH]c(-c3ccccc3)nc2n(C)c1=O,12
Cc1ccccc1Nc1nc(N)nc(CSc2ccc(F)cc2)n1,9
C=CCNC(=S)NNC(=O)c1ccc(Br)o1,9
CCOc1ccc(NC(=S)N(CCN2CCOCC2)Cc2ccc3c(c2)CCCN3CC)cc1,13

Main list, from the first entry:
Structure,Calb biofilm kill
CC(C)CCN1CCN(C2CCN(c3ccc4c(c3)OCO4)CC2)CC1CCO (stereo not drawn),7
Cn1c(=O)cc(SCC(=O)NCCC2=CCCCC2)c2ccc(Cl)cc21,7
Cn1c(=O)c2[nH]c(-c3ccccc3)nc2n(C)c1=O,12
Cc1ccccc1Nc1nc(N)nc(CSc2ccc(F)cc2)n1,9
C=CCNC(=S)NNC(=O)c1ccc(Br)o1,9
CCOc1ccc(NC(=S)N(CCN2CCOCC2)Cc2ccc3c(c2)CCCN3CC)cc1,13
C=CCNC(=S)NNC(=O)COc1ccc(Cl)cc1Cl,18
C#CCOCCOCCOCCNc1nc(N2CCN(C(=O)[C@H](Cc3cc4ccccc4[nH]3)n3cc([C@@H](N)C(C)CC)nn3)CC2)nc(N2CCN(C(=O)[C@H](CCCCN)n3cc([C@@H](N)CO)nn3)CC2)n1 (stereo partly drawn),19
Nc1ccnn1Cc1ccc(Br)s1,19
COc1cc(S(=O)(=O)Nc2ccc(C)cc2)ccc1NC(=O)c1ccncc1,24
COc1ccc(C(=O)CCN2CCN(c3ccccc3F)CC2)cc1,16
Cc1ccc(CNC(=O)CN(Cc2cccs2)C(=O)C2(C)CC(=O)N=C3C=CC=CN32)cc1 (stereo not drawn),13
N#C/C(=C\Nc1ccc2cn[nH]c2c1)c1nc(-c2ccccc2)cs1,9
C=C1C(O)C[C@H]2C(=C)CCC3[C@H](OC(=O)[C@]3(O)CO)[C@@H]12 (stereo partly drawn),9
Clc1cccc(Nc2nc(-c3ccncc3)nc3ccccc23)c1,18
C=CCNc1nc(Nc2ccccc2F)nc(OCC)n1,14
S=C(NC1CCCCC1)N1CCOCCOCCN(C(=S)NC2CCCCC2)CCOCC1,-9
O=C(NCC(=O)N(c1cccnc1)C(C(=O)NC1CCCC1)c1cccs1)c1cccs1 (stereo not drawn),23
CC(C)CCC(C(=O)O)C(C)CC(=O)Nc1ccn(-c2ccccc2)n1 (stereo not drawn),24
Cn1nc(-c2ccc(Cl)cc2)cc1NC(=O)Nc1ccccc1,7
COc1ccc(/C=C(\NC(=O)c2ccccc2)C(=O)NC2CCS(=O)(=O)C2)cc1 (stereo not drawn),24
CCOC(=O)c1cnc(Nc2nc3ccccc3o2)nc1CSC(=S)N1CCCCC1,12
N#Cc1nc(Cl)c(Cl)c(NN)c1Cl,11
CC(=O)Nc1ccc(SCC(=O)c2cc(C)n(-c3ccccc3F)c2C)cc1,10
COc1cccc(-c2n[nH]c3c2CCC3)c1,10
Cc1cc(C)nc(NC(=NCCc2c[nH]c3ccccc23)NC(=O)Nc2ccc(Cl)cc2)n1,15
Cc1cc(N2CCCC2)nc2ccc(NC(=S)NCCCN3CCC(C)CC3)cc12,16
O=C(NC1CCCCC1)C(c1cccs1)N(C(=O)c1ccccn1)c1ccccc1 (stereo not drawn),22
CC1CCN(C(=O)CCc2ccc(Oc3cc([N+](=O)[O-])cc([N+](=O)[O-])c3)cc2)CC1,16
Cc1ccn2cc(-c3cccc(NC(=O)C(C)C)c3)nc2c1,-2
CC(=O)NCCSCCNC(C)=O,14
COCCNC(=O)c1ccccc1NS(=O)(=O)c1ccc(C)c([N+](=O)[O-])c1,20
COC(=O)c1ccc(C(=O)Nc2nnc(-c3cccnc3)o2)cc1,11
CCOCCCNC(=O)C(c1ccc(C)cc1)N(Cc1cccs1)C(=O)c1ccccc1O (stereo not drawn),14
COc1cc(C(=O)NCCOc2ccccc2C)c(Br)c(OC)c1OC,19
C/C(=N\NC(=O)c1ccc(CSc2nncn2C)cc1)c1ccc2ccccc2c1,17
O=C(NCc1cccs1)C1CCC(CNS(=O)(=O)c2ccccc2)CC1 (stereo not drawn),20
CC(=O)c1ccc2c(c1)OCCOCCOCCOCCO2,8
Cc1nc(C(=O)NNC(=O)c2cccc(Cl)c2)c(C(F)(F)F)o1,16
Cc1cccc(N(C(=O)CCC(=O)Nc2cc(C)on2)C(C(=O)NC2CCCC2)c2ccc(C)o2)c1 (stereo not drawn),27
COc1ccc(-c2cn(-c3ccc(Br)cc3)c3[n+]2CCS3)cc1,10
Cc1cc(N/N=C/c2ccccc2[N+](=O)[O-])nc(-n2nc(C)cc2C)n1,8
Cc1cc(Cl)ccc1NC(=S)N1CCN(Cc2ccc3c(c2)OCO3)CC1,14
O=c1[nH][nH]c(-c2ccccc2)c1C=Nc1ccc(C(F)(F)F)cc1,13
O=C(O)/C=C/c1coc2ccccc2c1=O,21
Cc1c(NC(=O)c2ccc(S(=O)(=O)N3CCOCC3)cc2)c(=O)n(-c2ccccc2)n1C,16
COC(=O)C(C)(C)ONC(=O)Nc1ccc(Br)cc1,10
O=[N+]([O-])c1c(Nc2ccccn2)cc(Cl)c2nonc12,10
CS(=O)(=O)N1CCN(C(=O)COc2ccccc2)CC1,16
CCCCn1nc(C(=O)Nc2nc3c(s2)CCCC3)c2ccccc2c1=O,7
NC(=S)NNC(=O)c1cccc(Cl)c1,13
CCOC(=O)c1ccccc1N=N/C(C(C)=O)=C(/C)O,4
Cc1cccc(NC(=O)c2sc(Cl)nc2C)c1C,10
Cc1ccc(NC(=O)c2ccccc2F)cc1S(=O)(=O)N1CCCCCC1,7
Cc1ccc(C(=O)NCC(=O)OCC(=O)/C=C2\N(C)c3ccccc3C2(C)C)cc1C,15
CCCCC(CC(O)COCC(C)C)C(=O)NNC(=S)Nc1ccccc1 (stereo not drawn),11
O=C(Cc1ccc(F)cc1)N/N=C/c1ccncc1,7
CC1(C)CC(=O)C(C=NCCN2CCN(C(=O)c3ccc(Br)cc3)CC2)=C(O)C1,10
COc1ccccc1NC(=O)NCCN1CCN(C(=O)Nc2ccccc2OC)CC1,16
CC(C)[C@H](NC(=O)c1ccc(F)cc1)C(=O)NC1=NCCS1,6

Carrying on:
Structure,Calb biofilm kill
O=C(NCC1CCCO1)c1ccc(CNS(=O)(=O)c2ccc(F)c(Cl)c2)cc1 (stereo not drawn),16
Cc1nnc(SCc2nc3sc4c(c3c(=O)[nH]2)CCCC4)n(N)c1=O,14
COc1ccc(-c2nc(CN3CCN(c4ncnc5ccccc45)CC3)c(C)o2)c(OC)c1,2
CC(C)(C)Nc1nc(Cl)nc(NCCN2CCOCC2)n1,26
C=CCNC(=S)N1CCOCC1,17
Cc1ccsc1/C=N/Nc1nc2ccccc2s1,15
CC1CN(CC(O)COC2CCC(C(C)(C)C)CC2)CC(C)O1 (stereo not drawn),10
CCCN(Cc1nnc(-c2ccccc2Cl)o1)C(=O)c1cc([N+](=O)[O-])cc([N+](=O)[O-])c1,5
COC(=O)c1c(NC(=O)C2C3CCC(C3)C2C(=O)O)sc2c1CCCCC2 (stereo not drawn),27
Cc1ccc(CN2CCSc3ccc(C(=O)NC4CCN(Cc5ccccc5)CC4)cc32)cc1,18
COc1ccc(-c2cc(C(F)(F)F)nc(SCC(=O)NCc3cnn(C)c3C)n2)cc1OC,20
O=[N+]([O-])c1cc(S(=O)(=O)N2CCCC2)ccc1NN=C1CCCCC1,5
COC(=O)c1ccccc1OCCCCN1CC(C)OC(C)C1 (stereo not drawn),15
NC(=S)n1[nH]c(-c2ccc([N+](=O)[O-])cc2)c(N=Nc2cccc([N+](=O)[O-])c2)c1=O,5
C/C(Cc1ccccc1)=N\NC(=O)CNC(=O)c1ccc(Br)cc1,7
CCOc1ccc(-n2c(-c3ccc(Cl)cc3)c[n+]3c2SCC3)cc1,9
Cc1nc2ccccc2nc1OCC(=O)Nc1ccc2ccccc2c1,5
O=C1CSC(c2ccc([N+](=O)[O-])cc2)N1C1CCCCC1 (stereo not drawn),9
CNC(=S)NNC(=O)c1oc2nc(-c3ccccc3)cc(C)c2c1N,20
O=C(NC1CCCCC1)C(c1ccc(F)cc1)N(Cc1cccs1)C(=O)CN1C(=O)c2ccccc2S1(=O)=O (stereo not drawn),23

(list continues)
Molecule | Calb biofilm kill
O=C(O)/C=C/C(=O)N(CC1CCCO1)C1CC(=O)N(c2c(Cl)cccc2Cl)C1=O (stereo not drawn) | 21
O=C1c2cccc3c(N4CCCCC4)ccc(c23)C(=O)N1c1ccc(O)cc1 | 12
Cc1cc(-c2nnc(SCC(=O)c3ccc(Cl)cc3)o2)no1 | 16
Cc1ccsc1/C=C1\CCC(C2CCCC2)C1=O (stereo not drawn) | 17
O=C(Nc1nc(-c2ccc(Cl)s2)cs1)c1ccco1 | 3
Oc1ccc(C=NC2CCCCC2)cc1 | 8
CCOC(=O)c1cc(CC)sc1N1C(=O)CC(Sc2ccccc2C(=O)O)C1=O (stereo not drawn) | 15
Cc1nc2c(C(F)(F)F)cccc2c2c1CCS2 | 9
C/C(=N/OCO/N=C(\C)c1ccccc1F)c1ccccc1F | 8
C/C(=N\NC(=O)c1ccccc1[N+](=O)[O-])c1c(O)cc(C)oc1=O | 7
Cc1ccsc1/C=C1/NC(=O)N(Cc2ccc(F)cc2)C1=O | -8
CC(C)OCCCNC(=O)C(=O)N/N=C/c1ccc(OCc2ccccc2)cc1 | 7
FC(F)(F)c1nnc2ccc(NCc3ccccc3)nn12 | 16
Nc1cc2c(cc1C(=O)c1ccccc1F)OCCO2 | 15
O=C(c1ccco1)N1CCN(C(c2ccc(Cl)cc2)c2nnnn2Cc2ccccc2)CC1 (stereo not drawn) | 7
CC(NS(C)(=O)=O)C(c1cccs1)N1CCN(c2ccccc2)CC1 (stereo not drawn) | 18
Cc1ccc(NC(=O)CSc2ncccc2C(=O)Oc2cccc([N+](=O)[O-])c2)cc1Cl | 16
Cc1cccc(C(=O)OC(C)CN2CCN(C)CC2)c1 (stereo not drawn) | 18
COc1ccc(/C=N/n2c(-c3n[nH]c4c3CCC4)n[nH]c2=S)cc1 | 13
Cc1ccc(S(=O)(=O)N(Cc2ccc(Cl)cc2)c2ccccc2C(=O)NCc2ccco2)cc1 | 18
CS(=O)(=O)N1CCN(c2ccc([N+](=O)[O-])cc2F)CC1 | 11
CCC(C)(C)NC(=O)C(c1ccc(C)cc1)N(CCN1CCOCC1)C(=O)CNC(=O)c1cccs1 (stereo not drawn) | 3
CCOC(=O)C1(Cc2cccc(F)c2)CCN(C(=O)C2CCC2)CC1 | 15
O=C(CCC(=O)NNc1nc2ccccc2c2nc(-c3ccccc3)nn12)NCCCN1CCCC1=O | 26
Cc1cc2nc(CS(=O)(=O)c3ccccc3)cc(=O)n2[nH]1 | 13

Some of the entries above, reformatted:
COc1ccc(/C=N/n2c(-c3n[nH]c4c3CCC4)n[nH]c2=S)cc1
  Calb biofilm kill: 13
Cc1ccc(S(=O)(=O)N(Cc2ccc(Cl)cc2)c2ccccc2C(=O)NCc2ccco2)cc1
  Calb biofilm kill: 18

Ordered by SMILES length (ascending): part of the list above
Molecule | Calb biofilm kill
FC(F)(F)c1nnc2ccc(NCc3ccccc3)nn12 | 16
CC(NS(C)(=O)=O)C(c1cccs1)N1CCN(c2ccccc2)CC1 (stereo not drawn) | 18
Cc1ccc(NC(=O)CSc2ncccc2C(=O)Oc2cccc([N+](=O)[O-])c2)cc1Cl | 16

The listing picks up; the 2 compounds before the break are reprinted first.
Molecule | Calb biofilm kill
O=C(CCC(=O)NNc1nc2ccccc2c2nc(-c3ccccc3)nn12)NCCCN1CCCC1=O | 26
Cc1cc2nc(CS(=O)(=O)c3ccccc3)cc(=O)n2[nH]1 | 13
C=CCNC(=S)N/N=C/c1ccc(-c2ccc(Br)cc2)o1 | 15
CN(C)/C=N/S(=O)(=O)c1cccn1-c1ncc(C(F)(F)F)cc1Cl | 14
COc1ccc(CCNC(=O)COC(=O)c2ccc(N3CCCC3=O)cc2)cc1 | 6
CC12CCC(C(=O)Nc3cc(F)ccc3F)(CC1=O)C2(C)C (stereo not drawn) | 14
CNC(=O)C1=C(C)n2c(nc3ccccc32)NC1c1ccc(OC)cc1 (stereo not drawn) | 8
O=C(CSCc1ccc(Cl)cc1)Nc1ccc(S(=O)(=O)N2CCOCC2)cc1 | 10
Nc1nc(NCc2ccccc2)nc(NCc2ccccc2)c1[N+](=O)[O-] | 26
COc1ccc(CC(=O)Nc2ccc3c(c2)CCC3)cc1 | 14
O=C(Nc1ccc(S(=O)(=O)N2CCCC2)cc1)C1CCCN1C(=O)c1cccs1 (stereo not drawn) | 5
O=C(CCC1CCCN(C(=O)Cc2ccc(F)cc2)C1)N1CCN(c2ccccn2)CC1 (stereo not drawn) | 8
O=C1CCC(=O)N1c1ccc(NC2CCN(Cc3ccccc3)CC2)c([N+](=O)[O-])c1 | 6
CC(=O)Nc1ccc2c(c1)nc1n2CCN(C2CCCCC2)C1 | 16

These rows are one share of the data; rates above refer to the full screens.
